Bioassay records from PubChem.
LANA-H2B inh = blocks KSHV LANA binding to histone H2A/H2B. Q9QR71. cell-free LANA-H2A/H2B peptide, fluorescence polarization. inhibition, % (no concentration beside the values). actives 0.6% (n = 320,000); in the data active = inhibition mostly above about 10%, no sharp cut-off; inactive = mostly below about 6.7%;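 note: stock transfer was 7.5 nL into about 10 µL; 0% = median of vehicle wells and 100% = median of positive control wells; one replicate is shown; the record names a cut of 25% in any replicate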
T cruzi inh = T. cruzi replication inhibition. T. cruzi beta-gal in NIH3T3, luminescence, 90 h. inhibition, % (no concentration beside the values). actives 1.4% (n = 300,000). AID 1885;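 active = mean inhibition across valid replicates above about 55%, limit read from the data; inconclusive = mean below that limit but half or more replicates reach it; inactive = mean below it, under half of replicates reach it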;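 note: signal also drops with host cell toxicity which is not excluded here; 0% = plate median of DMSO wells and 100% = zero luminescence signal; higher percent means less beta-gal luminescence so fewer parasites; stock transfer was 50 nL into about 50 µL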
Ecoli rRNA inh = inhibits bacterial ribosomal RNA function over humanized ribosomes; E. coli WT GFP vs humanized-ribosome RFP mutants, fluorescence, 24 h; hits give low values; DMSO median 0, no signal -100; GFP signal change (wild-type ribosome), % (concentration not given with the values); actives 1.6% (n = 350,000); AID 720706;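 active = significant combined selectivity score with lowered wild-type GFP, culture density cut under 30%, mutant RFP and density less affected; inactive = any of these conditions unmet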; note: one replicate is shown; some compounds called inactive have numbers as strong as hits
A1 inh = inhibitors of the anti-apoptotic protein A1, read as caspase activation; MEF A1-2A-BIM cells, Caspase-Glo 3/7 luminescence, 3 h; percent of clofoctol response, vehicle zero; caspase activation, % (no concentration beside the values); actives 0.066% (n = 330,000);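 active = over half of replicate activation scores above 10%, or exactly half above 10 with the replicate mean above 10; inconclusive = replicate mean below 10 yet half the replicates above 10; inactive = over half of replicates below 10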;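 note: wells of about 30 µL received 50 nL stock; many hits fall short of the cut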
Beta cell apopt = beta cell apoptosis inhibition; INS-1E cytokine-induced death, ATP luminescence, 48 h; percent of positive-control rescue, neutral wells zero; protection from apoptosis, % (test concentration not listed); actives 0.8% (n = 300,000); AID 435005;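 active = all replicates at 75% or more, or half of them and the mean; inconclusive = half reach 75% but not the mean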;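 note: 0% = cytokine-treated negative control wells and 100% = positive control rescue; higher means more ATP so stronger rescue from cytokine killing; wells of about 40 µL received 100 nL stock; the first replicate is given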
ALR H2O2 inh = human ALR oxidase inhibition via reduced H2O2 | P55789 | purified ALR, DTT oxidation, H2O2 HRP-luminol luminescence | inhibition, % (test concentration not listed) | actives 3.8% (n = 290,000);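 active = mean and each replicate at 75% or more; inconclusive = only one of the two met; inactive = neither met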;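 note: stock transfer was 7.5 nL into about 7.5 µL; 0% = neutral wells and 100% = wells with inactivated enzyme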
Target sequence (P55789 whole entry, looked up): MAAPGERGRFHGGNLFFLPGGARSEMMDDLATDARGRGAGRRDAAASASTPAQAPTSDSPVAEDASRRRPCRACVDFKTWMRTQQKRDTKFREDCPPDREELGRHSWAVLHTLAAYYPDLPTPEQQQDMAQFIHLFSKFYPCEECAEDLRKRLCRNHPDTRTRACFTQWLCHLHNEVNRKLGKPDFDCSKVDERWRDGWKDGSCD
Calb FLC = affects C. albicans growth with fluconazole | actives 0.57% (n = 300,000) | AID 1979 | C. albicans CaCi-2 (fluconazole-resistant clinical isolate) + fluconazole, Alamar Blue growth, 48 h | growth inhibition, % (concentration not given with the values);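 active = most replicates above 75%; inconclusive = exactly half above 75%; inactive = most below 75%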;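 note: all wells also contain fluconazole at 8 µg/ml as a sub-toxic cotreatment; 0% = median of DMSO wells and 100% = median of geldanamycin control wells; wells of about 8 µL received 7.5 nL stock; the first replicate is given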
Beta2AR agonist = agonists of human beta-2 adrenergic receptor inducing internalization; actives 0.43% (n = 340,000); AID 504454; P07550; Am2.2-beta2AR cells, FAP receptor internalization, flow cytometry; reference of the scale not given here; response, % (no concentration beside the values);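 active = response above a set limit, near 3 SD of response in nonfluorescent compounds, cut at about 42% in these data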;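 note: stock transfer was 100 nL into about 11 µL; a reference agonist was the positive control; negative values mostly stem from fluorescent compounds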
Target sequence (P07550 whole entry, looked up): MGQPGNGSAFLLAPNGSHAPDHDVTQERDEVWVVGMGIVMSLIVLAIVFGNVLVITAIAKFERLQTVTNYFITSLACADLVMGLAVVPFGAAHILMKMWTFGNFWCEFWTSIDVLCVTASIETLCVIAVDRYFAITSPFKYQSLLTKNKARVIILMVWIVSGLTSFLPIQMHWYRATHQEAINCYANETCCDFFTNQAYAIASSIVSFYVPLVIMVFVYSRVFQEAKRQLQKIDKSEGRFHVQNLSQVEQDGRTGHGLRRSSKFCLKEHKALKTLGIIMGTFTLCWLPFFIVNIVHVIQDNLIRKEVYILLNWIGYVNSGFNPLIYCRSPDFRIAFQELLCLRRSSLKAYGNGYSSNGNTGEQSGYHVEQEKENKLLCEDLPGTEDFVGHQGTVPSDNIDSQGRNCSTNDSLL
Ecoli rRNA inh OD600 = further read-out of Ecoli rRNA inh, marked with its call; OD600 change, %; measured here: OD600 growth;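 optical density of the mix in the first replicate; 0 = DMSO median and -100 = no signal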
Ecoli rRNA inh RFP = further read-out of Ecoli rRNA inh, marked with its call; RFP signal change, %; measured here: RFP humanized mutant strains;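 first replicate; 0 = DMSO median and -100 = no signal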
Starred values were filed as active, the others as inactive; u = inconclusive; x = not tested or not shown. This is a subset (hit frequency here may not be typical).

Order of values – Ecoli rRNA inh RFP	LANA-H2B inh	Calb FLC	T cruzi inh	Ecoli rRNA inh	Beta2AR agonist	Ecoli rRNA inh OD600	ALR H2O2 inh	Beta cell apopt	A1 inh
COCCCNC(=O)CCCCCNS(=O)(=O)c1ccc(Br)cc1
→ -8.9	0.6	-10	6	9	7	4	2	-7	0.8
O=C(Nc1nc(-c2ccccc2Cl)cs1)c1cccnc1
→ x	0.3	u	5	x	0	x	-9	-1	-0.2
O=C1NCCCC1C(=O)Nc1cccc(C(F)(F)F)c1 (stereo not drawn)
→ x	x	3	-9	x	5	x	x	-26	0.1
CCCCOc1ccccc1NC(=O)c1scc2c1OCCO2
→ 0.5	x	38	23	-13	1	-5	x	x	x
Cn1cc(S(=O)(=O)N2CCc3ccccc3C2)c(=O)n(C)c1=O
→ -0.8	1.1	-7	-2	7	-7	7	13	-3	0.6
CC(C)(C)OC(=O)N[C@H](C(=O)OC(C)(C)C)c1ccccc1
→ -1.3	-5.0	x	x	6	-7	-4	-1	-3	-0.3
Cc1cc(C)c(S(=O)(=O)NCCc2ccncc2)c(C)c1
→ 1.3	2.9	-8	4	6	5	20	-13	3	-0.5
CC(=O)Nc1ccc(S(=O)(=O)N(C)CC(=O)OCC(=O)Nc2cc(C)on2)cc1
→ -0.4	2.2	x	x	3	-1	13	-3	0	0.0
O=C(CNS(=O)(=O)c1c(Cl)cccc1Cl)OCc1csc(-c2ccccc2)n1
→ 9.7	1.3	-3	-11	-14	3	-3	x	0	1.2
Cc1ccc(/C=N/NC(=O)Cc2cccn2C)s1
→ x	-0.3	3	-10	x	0	x	55	-3	-0.3
COC(=O)C1=CN(C)C=C(C(=O)OC)C1c1ccc(O)c(OC)c1
→ 2.7	2.2	-11	0	9	-5	7	10	3	0.0
O=C(NNC(=S)Nc1ccc(Br)cc1Cl)c1ccncc1
→ -10.0	-0.7	21	-19	-24	3	-37	74	-4	-0.6
CCOc1ccc(OCCC(=O)NNC(=O)c2ccncc2)cc1
→ 0.1	4.1	x	x	6	-3	18	2	-3	0.1
O=C(O)c1ccc(NS(=O)(=O)c2ccc(C(=O)Nc3ccccc3)cc2)cc1
→ 2.1	4.1	0	-21	5	4	6	-3	-3	-1.0
COc1ccc2c(c1)OC[C@H]1[C@H]2N2C(=O)c3cc(OC)ccc3NC(=O)[C@@]2(C)[C@H]1c1ccccc1
→ -0.1	1.0	x	x	0	0	8	x	12	0.6
O=C(COc1ccc2c(c1)oc(=O)c1ccccc12)NC(Cc1ccc(Cl)cc1)C(=O)O (stereo not drawn)
→ -4.1	8.4	-2	-19	-17	-13	-9	20	x	-0.3
CC1=CC(=C(C#N)C#N)C=C(C)N1Cc1ccc(Cl)cc1
→ 0.0	-7.0	-3	-13	9	7	7	-2	-15	0.3
Cn1c(=O)[nH]c(=O)c2c1nc(N/N=C/c1cccnc1)n2Cc1ccc(Cl)cc1
→ -1.6	-4.1	19	17	9	-16	15	8	-2	0.5
CC(=O)c1cn(Cc2ccccc2)c(=O)n(Cc2ccc(F)cc2)c1=O
→ -3.3	11	-10	11	8	-2	4	7	3	0.4
CN1CCN(S(=O)(=O)c2ccc(NC(=S)NC(=O)C3CCC3)cc2)CC1
→ x	-6.3	5	11	x	-1	x	12	-3	0.7
COc1ccc(-n2cnnc2SCc2cnc(-c3ccccc3)s2)cc1
→ x	-4.8	-12	39	x	1	x	99*	2	-0.9
COc1ccccc1OCCC(=O)OCC(=O)Nc1ccc(S(=O)(=O)N2CCOCC2)cc1
→ -1.0	-2.3	3	-5	5	-3	4	4	-2	0.2
CCCN1CCN(C(=O)c2noc3c2COc2ccc(C)cc2-3)CC1
→ 3.5	1.6	7	6	-2	-2	1	-4	-2	-3.3
COc1ccc(S(=O)(=O)N2CCC(Nc3ccccc3Cl)CC2)cc1
→ -5.0	38*	11	29	-9	-5	-12	-4	1	-0.4
COc1ccc(Cl)cc1C(=O)Nc1ccc(NC(=O)C(C)C)cc1
→ 0.7	-1.4	4	24	12	0	16	2	6	0.0
CN(C)S(=O)(=O)c1cccc(COC(=O)c2cccnc2Cl)c1
→ 1.5	-3.6	-3	-2	-1	-13	2	9	3	-0.1
NC(=O)c1ccc(NC(=O)COC(=O)CCC(=O)c2ccc(Cl)cc2)cc1
→ x	-1.4	2	-6	x	4	x	6	3	0.5
Cc1ccc(S(=O)(=O)N(C)C)cc1NC(=O)c1cc(=O)[nH]c2ccccc12
→ -7.5	2.3	1	4	-6	-8	-2	-4	-6	-0.4
CCOc1cccc(C=NCCc2ccc(OC)c(OC)c2)c1O
→ -2.3	7.5	-18	-17	3	1	2	30	-8	0.1
Nc1nc(N)nc(-c2cccc(Cl)c2)n1
→ 7.7	-3.7	x	x	2	-5	12	44	-8	-2.1
CC(=O)Oc1ccc(C(=O)Cc2ccc3ccccc3n2)c(O)c1C
→ -2.5	-4.3	13	-6	3	5	4	-8	1	-5.5
O=C(Nc1ccc(Br)cn1)C1CCCN1S(=O)(=O)c1ccccc1 (stereo not drawn)
→ x	-1.2	3	-10	x	-8	x	-13	-1	2.1
CC(Sc1nn(-c2ccc(Cl)cc2)c(=S)s1)C(=O)NCC1CCCO1 (stereo not drawn)
→ -0.6	3.6	2	9	3	3	5	-12	x	0.1
Cc1ccc(NC(=S)c2ccc3ccccc3n2)c(C)c1
→ 6.0	-1.8	-5	17	20	4	10	-1	4	-0.6
CC(=O)Nc1ccc(OCCOc2ccccc2C(C)=O)cc1
→ 3.2	-8.5	-4	7	-4	12	-5	x	-9	1.1
COc1ccc(C(=O)N2CCN(C(=O)Cc3ccccc3)CC2)cc1
→ -1.7	3.3	19	-7	-1	-3	8	-3	0	-0.2
Cc1cc[n+](-c2nc3ccccc3nc2[N-]S(=O)(=O)c2cccs2)cc1C
→ 6.9	1.8	10	-7	8	1	2	-4	-8	1.1
C=CCOc1ccccc1CN1CCC(n2nccc2NC(=O)C2CCOC2)CC1 (stereo not drawn)
→ -1.9	4.3	-8	14	11	6	8	-4	-8	-0.5
CCOC(=O)C1CCCN(C(=O)c2ccc(OC(C)=O)cc2)C1 (stereo not drawn)
→ x	1.1	6	-10	x	2	x	1	-3	1.5
CC1=C(C(=O)OC(C)C)C(c2cccc(F)c2)N2C(=O)C(C)SC2=N1 (stereo not drawn)
→ x	-1.6	-1	8	x	2	x	-19	-9	-0.1
Cc1ccc(OCCn2c(=S)[nH]c3ccccc32)c(C(C)C)c1
→ 21	3.3	-6	21	-31	69*	-51	21	9	0.4
CC(=O)c1ccc(N2CCN(C(=O)CCS(=O)(=O)c3ccc4c(c3)CCN4C(C)=O)CC2)cc1
→ 3.0	1.9	24	-10	4	0	4	-3	6	0.0
O=C(N/N=C/c1ccco1)c1cc(-c2ccc3ccccc3c2)n[nH]1
→ x	3.8	u	2	x	2	x	-14	64	0.8
O=C(COC(=O)c1ccc([N+](=O)[O-])o1)NC12CC3CC(CC(C3)C1)C2
→ 3.5*	-7.6	x	x	-30*	-8	9.9*	-30	-3	-0.2
CCOC(=O)c1ccc(Oc2cc(C)nc(Cl)n2)cc1
→ -4.7	1.0	-18	-11	-9	-1	-16	-9	-5	-0.4
O=[N+]([O-])c1cc(-c2cnc3ccccc3n2)ccc1Cl
→ -1.6	-1.6	38	4	17	0	17	0	-4	0.9
Cc1cc(-c2nnc(CCC(=O)N3CCN(Cc4cccc(F)c4)CC3)o2)c(C)o1
→ -0.4	1.5	-7	8	7	-7	7	0	-4	-0.6
COc1ccc(CCNCC(O)COc2cccc(Br)c2)cc1OC (stereo not drawn)
→ 0.0	-0.3	-6	54	-2	-12	-5	-7	1	0.2
CCCCn1c(N)c(N(CC)C(=O)c2ccccc2C)c(=O)[nH]c1=O
→ -0.4	1.1	1	-7	7	-1	9	-1	-1	0.5
COC(=O)c1ccccc1NC(=O)CSc1nccc(C)n1
→ -2.6	-2.9	-5	-18	-2	3	-14	-5	x	-0.2
CC(=O)c1c(C)[nH]c(C(=O)COc2cc(C)ccc2C(C)C)c1C
→ x	-0.8	1	32	x	17	x	-2	103*	-0.3
COc1ccc(N(CC(=O)NCCc2ccccc2)C(=O)CCC(=O)Nc2ccccn2)cc1
→ -1.5	2.9	1	9	8	6	20	x	-6	0.2
COc1cccc(CN2C(=NC(=O)CCC3CCCC3)SC3CS(=O)(=O)CC32)c1 (stereo not drawn)
→ 1.2	-1.0	0	4	2	-5	7	1	2	-0.6
COc1ccc(CCC(=O)OCC(=O)Nc2ccccc2OC(F)F)cc1OC
→ 0.2	-3.1	-23	-12	-4	0	-20	1	-1	-0.3
c1ccc(CNc2nc(-c3cccnc3)cs2)cc1
→ -0.7	4.1	-16	22	-9	-19	-12	10	-10	-0.4
Cc1ccc(S(=O)(=O)N2CCN(C(=O)COC(=O)/C=C/c3ccc([N+](=O)[O-])cc3)CC2)c(C)c1
→ -3.0	-1.7	x	x	-2	-6	6	x	0	-0.8
CC(NC(=O)c1ccc(OC2CCN(Cc3ccccn3)CC2)cc1)c1ccccc1 (stereo not drawn)
→ -0.1	-15	2	1	-1	-2	1	-12	1	0.6
COCCCNc1nc2ccccc2nc1NS(=O)(=O)c1ccc(Cl)cc1
→ -0.4	-4.9	-9	0	0	4	-12	34	4	-0.4
NNC(=O)c1cccc(S(=O)(=O)Nc2cc(Cl)ccc2Cl)c1
→ 2.8*	-3.4	5	9	-20*	-4	-15*	32	0	-0.6
CC1(NC(=O)CCc2nc3sc4c(c3c(=O)[nH]2)CCCC4)CCS(=O)(=O)C1 (stereo not drawn)
→ 0.7	1.0	-3	14	4	1	8	-16	-2	-0.2

(cont.)
Order of values – Ecoli rRNA inh RFP	LANA-H2B inh	Calb FLC	T cruzi inh	Ecoli rRNA inh	Beta2AR agonist	Ecoli rRNA inh OD600	ALR H2O2 inh	Beta cell apopt	A1 inh
CCOc1ccc(NC(=O)CN2CCN(CC(=O)Nc3ccc(F)cc3)CC2)cc1
→ x	2.4	4	-15	x	-13	x	-3	-3	0.1
C/C(N)=C(/C#N)C(=O)COC(=O)CCSc1ccccc1Cl
→ x	0.6	5	-4	x	1	x	-4	-5	0.5
S=C1NCCNC(=S)NCCOCCN1
→ -2.4	3.6	-1	-5	9	5	10	1	x	0.6
CCC1CCCCN1C(=O)N[C@@H](Cc1ccccc1)C(=O)O (stereo partly drawn)
→ x	1.4	-1	-10	x	9	x	8	-3	-0.5
COCCN(C(=O)CNC(=O)c1ccco1)C(C(=O)NC1CCCCC1)c1cccnc1 (stereo not drawn)
→ -0.8	-0.8	-10	3	-2	2	2	-2	0	0.7
Cc1cc2nc(/C(C#N)=C/c3ccncc3)[nH]c2cc1C
→ 11	0.1	18	12	4	13	-2	5	3	0.2
O=C(C(=O)N1CCN(c2ccccc2)CC1)c1cn(CC(=O)N2CCCCCC2)c2ccccc12
→ 7.1	6.4	4	35	5	19	3	-5	0	0.1
Cc1ccc(/C=C(\CCC(=O)O)c2nc3ccccc3s2)cc1[N+](=O)[O-]
→ -3.9*	-2.3	53	0	-29*	6	-20*	13	2	-0.7
NC(=O)c1ccc(/C=N/O)nc1
→ 0.0	2.7	-3	-5	21	-1	2	-5	1	-0.6
